MBNL1 CUG block: blocks human MBNL1 binding to CUG repeat RNA; Q9NR56; TR-FRET MBNL1-His/biotin-(CUG)12 binding, 665/545 ratio; Potency, µM (titrated, usually from 57.5 µM), for inactives: at the highest dose activity change, negative = inhibition, most hits filed as inhibitors; 0.036% of 280,000 active; active means well fitted inhibition curve with a large enough effect in the signal ratio, with a control signal flat, not every such curve was filed as active; inconclusive means small, poorly fitted or top-dose-only effect, or effect the other way, or a change in a side signal; inactive means no such curve, though single readings can be large or run the other way; the % refers to the signal ratio; further: potency means the concentration at half of the fitted maximal effect; on the % scale 0 is the no-effect control and ±100 the full control effect
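Ratiometric TR-FRET (665 over 545 nm, excitation 340 nm) tracks disruption of MBNL1-His/biotin-(CUG)12 complex after 60 min at room temperature, with compounds at 92 nM to 58 uM final.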
Rab9 promoter act: activators of Rab9 promoter | Huh7 Rab9 promoter-luciferase reporter, luminescence, 24 h | Potency, µM (titrated, usually from 9.22 µM), inactives show at the top dose activation, negative = inhibition, actives largely listed as activators | 2.8% of 320,000 active; further: potency means the concentration at half of the fitted maximal effect; % of control where 0% means no effect; nearly all actives have a fitted effect of over 60% in size
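Rab9 promoter-driven luciferase in stably transfected Huh7 cells; 1500 cells/well rested 2 h, exposed to compound in DMSO for 24 h at 37 °C, 5% CO2. Luminescence read 10 min after adding luciferase reagent at ambient temperature.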
FLuc counter: firefly luciferase modulation, counter-screen for miR-21 project. P08659. purified FLuc, Km substrates, luminescence inhibition. Potency, µM (highest dose often 57.5 µM), for the others: at the top dose activity change, negative = inhibition, hits mostly inhibitors. 6.9% of 360,000 active. AID 588342;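 further: potency means the concentration at half of the fitted maximal effect; plate controls were vehicle for no effect and reference inhibitor for full effect; nearly all actives have a fitted effect of over 55% in size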
Target sequence (P08659 whole entry, looked up): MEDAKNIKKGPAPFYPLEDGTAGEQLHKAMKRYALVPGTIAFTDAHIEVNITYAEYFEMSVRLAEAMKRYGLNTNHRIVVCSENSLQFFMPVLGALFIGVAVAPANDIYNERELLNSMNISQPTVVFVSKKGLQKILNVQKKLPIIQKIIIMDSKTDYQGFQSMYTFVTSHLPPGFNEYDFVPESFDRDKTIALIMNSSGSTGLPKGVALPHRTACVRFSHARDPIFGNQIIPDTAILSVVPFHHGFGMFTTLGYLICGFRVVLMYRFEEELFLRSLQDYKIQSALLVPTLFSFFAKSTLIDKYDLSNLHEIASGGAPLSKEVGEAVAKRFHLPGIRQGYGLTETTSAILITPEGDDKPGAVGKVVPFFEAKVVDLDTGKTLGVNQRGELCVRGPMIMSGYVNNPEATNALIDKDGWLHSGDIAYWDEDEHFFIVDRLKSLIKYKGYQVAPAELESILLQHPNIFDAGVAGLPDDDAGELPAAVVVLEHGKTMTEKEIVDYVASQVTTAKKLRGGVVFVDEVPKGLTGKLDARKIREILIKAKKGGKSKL
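Purified P. pyralis luciferase, 10 nM final, with Km-level 10 uM D-luciferin and 10 uM ATP in 50 mM Tris acetate pH 7.5, 10 mM Mg acetate, 0.01% Tween-20, 0.05% BSA; 6-point qHTS titration about 60 µM downward; luminescence read.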
PKM2 activator: PKM2 (human) enzyme activation. P14618. purified PKM2, Kinase-Glo ATP luminescence, activation; response scale: 0% is enzyme alone, no compound. Potency, µM (top dose mostly 57.5 µM), for inactives: at the highest dose activation, most hits filed as activators. 0.34% of 260,000 active. AID 1631; further: potency means the concentration at half of the fitted maximal effect; on the % scale 0 is the no-effect control and ±100 the full control effect; nearly all actives have a fitted effect of over 55% in size
Target sequence (P14618 whole entry, looked up): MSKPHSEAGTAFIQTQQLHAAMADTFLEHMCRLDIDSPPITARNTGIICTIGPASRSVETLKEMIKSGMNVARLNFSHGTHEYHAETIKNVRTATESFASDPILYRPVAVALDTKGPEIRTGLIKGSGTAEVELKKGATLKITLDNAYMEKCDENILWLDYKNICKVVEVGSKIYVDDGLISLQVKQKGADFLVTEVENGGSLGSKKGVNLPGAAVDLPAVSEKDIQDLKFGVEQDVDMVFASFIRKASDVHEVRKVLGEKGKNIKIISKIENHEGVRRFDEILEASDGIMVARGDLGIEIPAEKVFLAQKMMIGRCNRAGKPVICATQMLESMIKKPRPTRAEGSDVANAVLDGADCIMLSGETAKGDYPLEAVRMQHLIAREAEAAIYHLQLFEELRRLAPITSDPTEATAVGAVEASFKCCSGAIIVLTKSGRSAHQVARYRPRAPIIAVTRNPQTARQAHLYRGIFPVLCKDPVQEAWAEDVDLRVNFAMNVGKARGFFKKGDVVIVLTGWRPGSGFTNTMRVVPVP
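ATP formation by purified human PK-M2, quantified via coupled luciferase luminescence after 1 h at room temperature with 0.1 mM ADP and 0.5 mM PEP final.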
ELG1 repair inh: blocks ELG1-dependent DNA repair in HEK293T cells; 2.3% of 330,000 active; AID 504467; Potency, µM (doses to about 46.1 µM), without a hit: at the top dose activity change, negative = inhibition, hits mostly inhibitors; HEK293T ELG1-luciferase reporter, luminescence, 16 h; DNA damage induced by 5-fluorouridine; further: potency means the concentration at half of the fitted maximal effect; on the % scale 0 is the no-effect control and ±100 the full control effect; nearly all actives have a fitted effect of over 55% in size
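In this reporter screen, reduction of luminescence relative to DMSO vehicle indicated activity. Compounds and 5-fluorouridine were added together to 2,000 cells per well, incubated for 16 hr at 37 °C, then developed with ONE-Glo.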
Menin MLL FP TR: inhibitors of human menin-MLL interaction, mutant MLL peptide | O00255 | Menin + Texas Red MLL mutant peptide, fluorescence polarization | 0.23% of 270,000 active | Potency, µM (top dose mostly 61.6 µM), for inactives: top-dose FP activity change, negative = inhibition, most hits filed as inhibitors; active means well fitted inhibition curve with a large enough effect in the polarisation, with a control signal flat, not every such curve was filed as active; inconclusive means small, poorly fitted or top-dose-only effect, or effect the other way, or a change in a side signal; inactive means no such curve, though single readings can be large or run the other way; the % refers to the polarisation; further: potency means the concentration at half of the fitted maximal effect; % of control where 0% means no effect; many of its hits are not listed in these tables
Mito fusion yeast: blocks mitochondrial division or promotes mitochondrial fusion; AID 485298; 0.23% of 320,000 active; S. cerevisiae fusion-defective mutant growth rescue, CellTiterGlo 48 h; Potency, µM (doses to about 46.1 µM), for inactives: at the highest dose growth rescue (activation), usual class: activators;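 further: potency means the concentration at half of the fitted maximal effect; % of control where 0% means no effect; nearly all actives have a fitted effect of over 45% in size; temperature-sensitive fusion mutants such as fzo1-1 at 37 °C on non-fermentable ethanol glycerol medium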
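Luminescent cell viability in 1536-well qHTS format served as the measure of rescued growth in ts fusion-mutant S. cerevisiae cultured on non-fermentable YPEG for 48 hours at 37C.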
NPC1 promoter act: activates the NPC1 promoter. Huh7 NPC1 promoter luciferase reporter, 24 h. AID 485313. 2.4% of 320,000 active. Potency, µM (highest dose often 9.22 µM), for the others: at the highest dose activation, hits mostly activators;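 further: potency means the concentration at half of the fitted maximal effect; % of control where 0% means no effect; nearly all actives have a fitted effect of over 60% in size; reporter is driven by a mutant NPC1 promoter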
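Luminescence from an NPC1 promoter-driven luciferase reporter in stably transfected Huh7 cells was measured after 24 h compound treatment at 37 °C, followed by 10 min ambient incubation with luciferase detection reagent.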
KCNH2 3.1 inh: blocks the human KCNH2 3.1 channel isoform. U2OS KCNH2 3.1, thallium flux FluxOr; active compounds read low. activity change, % (tested at about 1.8 µM). 0.95% of 340,000 active. AID 720553;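 active means maximum activity change below -70%; inconclusive means maximum activity change from -70% to -50%; inactive means maximum activity change above -50%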;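 further: thallium influx rate constant from kinetic fluorescence after stimulation buffer; on the % scale 0 is the no-effect control and ±100 the full control effect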
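Thallium flux read-out: FluxOr dye with Red40 quencher in HBSS/HEPES, 45 min at RT. Rate constants from kinetic reads were normalized to positive and negative DMSO controls. Cells: U2OS virally expressing the 3.1 isoform.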
* = called active by the depositor; ? = inconclusive; . = no result given; [ ] = remark or other dose. Unless noted, the call rests on the fitted dose curve; in most records, active means well fitted curve in the direction sought with a large enough effect; inconclusive means small, poorly fitted or top-dose-only effect, or another doubt; inactive means no such curve, though single readings can be large; an effect the other way counts as inactive or inconclusive.

Assay codes: A = MBNL1 CUG block; B = Rab9 promoter act; C = FLuc counter; D = PKM2 activator; E = ELG1 repair inh; F = Menin MLL FP TR; G = Mito fusion yeast; H = NPC1 promoter act; I = KCNH2 3.1 inh
C#C[C@]1(O)CC[C@H]2[C@@H]3CCC4=Cc5oncc5CC4(C)[C@H]3CCC21C (stereo not given in full)
  A: . | B: -20.8%[46.1 µM] | C: . | D: . | E: . | F: . | G: -62.6%[inhibitor] | H: -19.1%[46.1 µM] | I: .
CCCCCCCCNC(=S)NCCN1CCCCC1
  A: -8.5% | B: -3.1% | C: 1.8% | D: . | E: -8.6% | F: -9.3% | G: 24.4% | H: -2.5% | I: -22.5
Cc1[nH]ccc2c1[nH]c1cc(=O)ccc12
  A: -2.4% | B: -1.2%[1.84 µM] | C: 6.1% | D: 3.8% | E: ? | F: 1.0%[24.8 µM] | G: -0.7% | H: -4.4% | I: -2.6
Cc1cc(Cl)c(OCCn2ccnc2)c(Br)c1
  A: -1.0% | B: -6.1% | C: -3.6% | D: -0.5%[11.5 µM] | E: -10.9% | F: ? | G: -10.1% | H: -3.3% | I: -14.6
CC(C)N(CCNCC(O)COc1ccc(C(C)(C)c2ccccc2)cc1)C(C)C (stereo not given)
  A: -1.9% | B: 0.6% | C: 0.3% | D: -3.9% | E: 5.1% | F: -21.5% | G: -11.4% | H: -0.9% | I: ?
O=C1c2ccccc2S(=O)(=O)N1CCCCN1CCN(c2ncccn2)CC1
  A: . | B: . | C: . | D: . | E: . | F: -6.5%[24.8 µM] | G: . | H: . | I: .
C/C(=N\Nc1ccc(C(=O)O)cc1)c1ccc(Br)cc1
  A: 0.6% | B: 0.0891µM* | C: 0.19µM* | D: 1.5% | E: ? | F: . | G: 3.6% | H: ? | I: 1.6
CC1CCN(CCCCOc2ccc(C(C)(C)C)cc2)CC1
  A: -4.0% | B: -1.5% | C: -1.1% | D: . | E: ? | F: ? | G: -26.0% | H: -0.2% | I: -74.8*
COc1ccc(CCNc2nc(-c3sc(C)nc3C)cs2)cc1OC
  A: ? | B: 1.8% | C: -22.2% | D: 17.0% | E: 18.4µM* | F: 4.4% | G: 2.9% | H: 4.8% | I: 13.3
CC(C)NCc1cccc([N+](=O)[O-])c1
  A: . | B: -12.5% | C: -1.1% | D: 1.8% | E: -0.5% | F: -14.0% | G: -0.2% | H: 1.0% | I: 2.9
CCSc1ccc2cc(OC)ccc2[n+]1CC
  A: ? | B: -22.1% | C: -5.0% | D: 6.9% | E: ? | F: -22.1% | G: -5.1% | H: -15.7% | I: 18.4
Cc1cc(C)nc(NNC2=CC(=[N+]3CCCC3)CCC2)n1
  A: 7.2% | B: 8.1% | C: -4.1% | D: ? | E: 15.7% | F: 2.3% | G: 6.3% | H: -2.0% | I: -42.9
c1ccc(COc2ccc(OCCCNC3CCCC3)cc2)cc1
  A: -2.2% | B: 16.5% | C: ? | D: 0.5% | E: ? | F: . | G: 12.7% | H: 8.0% | I: ?
CS(=O)(=O)N1CCN(Cc2ccc(C(F)(F)F)cc2)CC1
  A: -6.2% | B: -1.4% | C: -2.7% | D: -0.1% | E: -26.1% | F: 0.7% | G: 2.8% | H: 0.6% | I: 4.0
CCN1CCS/C1=C\C=C\C1=[N+](CC)CCS1
  A: ? | B: -39.7%[inhibitor] | C: -2.3% | D: 0.7% | E: 0.58µM* | F: -7.2% | G: -6.2% | H: -43.9%[inhibitor] | I: -0.8
Cc1ccc(C(C)(C)C)c(OCCCn2ccnc2)c1
  A: -10.7% | B: -4.6% | C: 1.2% | D: 4.3% | E: -8.1% | F: 2.3% | G: -1.0% | H: -5.2% | I: -1.7
COc1ccc(CNc2ncc(-c3ccc(Cl)cc3)n2C)c(OC)c1OC
  A: 2.0% | B: -7.2% | C: -0.8% | D: 11.2% | E: -0.5% | F: ? | G: -4.6% | H: -1.8% | I: -14.9
CNCCCOc1ccc(C(C)(C)c2ccccc2)cc1
  A: -2.8% | B: -11.3% | C: 7.3% | D: -3.5% | E: ? | F: ? | G: -12.5% | H: -3.0% | I: .
CC1CC(C)CN(CCOCCSc2ccccc2)C1 (stereo not given)
  A: 2.8% | B: -7.1% | C: 2.9% | D: 3.3% | E: -12.5% | F: 10.3% | G: 6.7% | H: -2.2% | I: -5.7
C[C@@H](CNC1CCCCC1)OC(=O)c1ccccc1
  A: . | B: . | C: . | D: . | E: . | F: 3.4%[24.8 µM] | G: . | H: . | I: .
CCN(CC)CCCSc1nc2ccccc2s1
  A: -8.5% | B: 15.9% | C: -18.5% | D: -10.4% | E: ? | F: -10.5% | G: -0.9% | H: 16.4% | I: -11.1
C/C(=N\Nc1ccc(C(=O)O)cc1)c1ccc(-n2ccnc2)cc1
  A: ? | B: 3.98µM* | C: 12µM* | D: 0.5% | E: ? | F: 2.0% | G: -4.8% | H: 2.51µM* | I: 17.6
c1ccc(CNc2nc(CN3CCOCC3)nc3scc(-c4ccccc4)c23)cc1
  A: . | B: 1.7% | C: -2.4% | D: 10.5% | E: ? | F: -18.2% | G: 11.6% | H: 1.6% | I: 4.1
Cc1n[nH]c(C)c1CCCCOc1ccccc1[N+](=O)[O-]
  A: 5.7% | B: -6.2% | C: -15.7% | D: 0.7% | E: 0.8% | F: -5.6% | G: -2.5% | H: -0.4% | I: -1.3
CC1(C)S[C@@H]2[C@H](NC(=O)C3(N)CCCCC3)C(=O)N2[C@H]1C(=O)O
  A: . | B: . | C: . | D: . | E: . | F: -4.3%[24.8 µM] | G: . | H: . | I: .
CCn1c(/C=C/N(C)c2ccccc2)[n+](CC)c2ccc(Cl)cc21
  A: ? | B: -28.7% | C: 8.6% | D: -2.1% | E: ? | F: ? | G: -0.3% | H: -27.1% | I: -20.9

Some of these compounds in order of SMILES length, highest first:
Assay codes: A = MBNL1 CUG block; B = Rab9 promoter act; C = FLuc counter; D = PKM2 activator; E = ELG1 repair inh; F = Menin MLL FP TR; G = Mito fusion yeast; H = NPC1 promoter act; I = KCNH2 3.1 inh
CC1(C)S[C@@H]2[C@H](NC(=O)C3(N)CCCCC3)C(=O)N2[C@H]1C(=O)O
  A: . | B: . | C: . | D: . | E: . | F: -4.3%[24.8 µM] | G: . | H: . | I: .
c1ccc(CNc2nc(CN3CCOCC3)nc3scc(-c4ccccc4)c23)cc1
  A: . | B: 1.7% | C: -2.4% | D: 10.5% | E: ? | F: -18.2% | G: 11.6% | H: 1.6% | I: 4.1
CCn1c(/C=C/N(C)c2ccccc2)[n+](CC)c2ccc(Cl)cc21
  A: ? | B: -28.7% | C: 8.6% | D: -2.1% | E: ? | F: ? | G: -0.3% | H: -27.1% | I: -20.9
COc1ccc(CNc2ncc(-c3ccc(Cl)cc3)n2C)c(OC)c1OC
  A: 2.0% | B: -7.2% | C: -0.8% | D: 11.2% | E: -0.5% | F: ? | G: -4.6% | H: -1.8% | I: -14.9
Cc1n[nH]c(C)c1CCCCOc1ccccc1[N+](=O)[O-]
  A: 5.7% | B: -6.2% | C: -15.7% | D: 0.7% | E: 0.8% | F: -5.6% | G: -2.5% | H: -0.4% | I: -1.3
C[C@@H](CNC1CCCCC1)OC(=O)c1ccccc1
  A: . | B: . | C: . | D: . | E: . | F: 3.4%[24.8 µM] | G: . | H: . | I: .
CCN1CCS/C1=C\C=C\C1=[N+](CC)CCS1
  A: ? | B: -39.7%[inhibitor] | C: -2.3% | D: 0.7% | E: 0.58µM* | F: -7.2% | G: -6.2% | H: -43.9%[inhibitor] | I: -0.8
CNCCCOc1ccc(C(C)(C)c2ccccc2)cc1
  A: -2.8% | B: -11.3% | C: 7.3% | D: -3.5% | E: ? | F: ? | G: -12.5% | H: -3.0% | I: .
CC1CC(C)CN(CCOCCSc2ccccc2)C1 (stereo not given)
  A: 2.8% | B: -7.1% | C: 2.9% | D: 3.3% | E: -12.5% | F: 10.3% | G: 6.7% | H: -2.2% | I: -5.7
CCN(CC)CCCSc1nc2ccccc2s1
  A: -8.5% | B: 15.9% | C: -18.5% | D: -10.4% | E: ? | F: -10.5% | G: -0.9% | H: 16.4% | I: -11.1

Retrieved by structure from the entries so far:
Assay codes: A = MBNL1 CUG block; B = Rab9 promoter act; C = FLuc counter; D = PKM2 activator; E = ELG1 repair inh; F = Menin MLL FP TR; G = Mito fusion yeast; H = NPC1 promoter act; I = KCNH2 3.1 inh
c1ccc(CNc2nc(CN3CCOCC3)nc3scc(-c4ccccc4)c23)cc1
  A: . | B: 1.7% | C: -2.4% | D: 10.5% | E: ? | F: -18.2% | G: 11.6% | H: 1.6% | I: 4.1
CCn1c(/C=C/N(C)c2ccccc2)[n+](CC)c2ccc(Cl)cc21
  A: ? | B: -28.7% | C: 8.6% | D: -2.1% | E: ? | F: ? | G: -0.3% | H: -27.1% | I: -20.9

These rows are one share of the data; rates above refer to the full screens.
